VACV mCherry inh: inhibitors of vaccinia virus infection (mCherry reporter signal) | Vaccinia virus mCherry reporter infection, fluorescence; about a quarter of the inactives have no number | Potency, µM (series often up to 36.5 µM), inactives show top-dose activity change, negative = inhibition, actives largely listed as inhibitors | hit rate 0.63% among 310,000 | AID 720579; active = well fitted inhibition curve with a large enough effect; inconclusive = small, poorly fitted or top-dose-only effect; inactive = no such curve, though single readings can be large or run the other way; tested in A549 cells; also: nearly all actives have a fitted effect of over 35% in size; inactives centre near -10
Vaccinia Venus: vaccinia inhibition (Venus reporter); Vaccinia virus Venus reporter expression, fluorescence; Potency, µM (titrated, usually from 36.5 µM), inactives show at the highest dose activity change, negative = inhibition, usual class: inhibitors; hit rate 0.46% among 330,000; AID 720580; active means well fitted inhibition curve with a large enough effect; inconclusive means small, poorly fitted or top-dose-only effect; inactive means no such curve, though single readings can be large or run the other way; tested in A549 cells; also: nearly all actives have a fitted effect of over 30% in size; inactives centre near -10
Numbers without * were called inactive; i = inactive; ? = inconclusive; · = not tested or not shown; & = joins results of further samples; [ ] = remark or other dose. % is scaled to controls: 0 for no effect and ±100 for the full control effect; potency is read from the fitted curve at half-maximal effect.

SMILES	VACV mCherry inh	Vaccinia Venus
COc1ccccc1CNC(=O)CSc1nc2nc(C)c(Cc3ccccc3Cl)c(C)n2n1	-8%	-9%
COc1ccccc1OCCNC(=O)c1cc(F)c(F)cc1Cl	-15%	-5%
Cc1cccc(OCC(=O)N(Cc2cccc(Cl)c2)Cc2ccco2)c1C	-13%	-7%
CC(C1CC2CCC1C2)n1c(-c2cccs2)n[nH]c1=S (stereo not given)	?	6%
O=C(CSc1n[nH]c(-c2ccncc2)n1)Nc1ccccc1	i	-4%
COc1cccc(C(=O)N(Cc2sccc2C)C2CCS(=O)(=O)C2)c1 (stereo not given)	-3%	-9%
CCOC(=O)NC(N(O)c1cccc(Cl)c1)C(Cl)(Cl)Cl (stereo not given)	?	-3%
O=C(OCc1cn([C@@H]2CN(CC3CCCCC3)[C@@H](c3ccccc3)C[C@H]2O)nn1)c1ccccc1	?	-21%
O=C(NC(=S)Nc1ccc(-c2nc3ncccc3o2)cc1)c1ccccc1F	-16%	-11%
O=C1CN(C(=O)COC(=O)CNC(=O)c2ccc(Cl)cc2)c2ccccc2N1	i	-18%
COCCNC(=S)N/N=C(\C)c1cccc([N+](=O)[O-])c1	i	-6%
Cn1cc(Br)c(C(=O)NNC(=O)c2ccccc2)n1	-11%	-6%
CNc1cc(-c2ccc(OC)nc2)ncn1	i	-2%
Cc1ccccc1NC(=O)C(=O)NCCc1ccccc1	-11%	-19%
Cc1cccc(NC(=O)CSc2nnc3ccc(-c4ccccn4)nn23)c1	-12%	-7%
O=C(/C=C/c1cccc([N+](=O)[O-])c1)NCCN1C(=O)S/C(=C\c2ccc(F)cc2)C1=O	i	-8%
O=C(Nc1ccc(N2C(=O)c3cccc4cccc(c34)C2=O)cc1)c1ccc(N2CCCCC2)c([N+](=O)[O-])c1	-15%	-12%
O=C(Cn1c(-c2cccs2)cc2cc(Cl)ccc21)N1CCCCC1	-2%	-13%
O=S(=O)(CCN1CCOCC1)c1ccc(Cl)cc1	-22%	?
O=C(c1ncc[nH]1)c1ccco1	-5%	-13%

The final 6 records of the part above come first, to join the parts.
SMILES	VACV mCherry inh	Vaccinia Venus
Cc1cccc(NC(=O)CSc2nnc3ccc(-c4ccccn4)nn23)c1	-12%	-7%
O=C(/C=C/c1cccc([N+](=O)[O-])c1)NCCN1C(=O)S/C(=C\c2ccc(F)cc2)C1=O	i	-8%
O=C(Nc1ccc(N2C(=O)c3cccc4cccc(c34)C2=O)cc1)c1ccc(N2CCCCC2)c([N+](=O)[O-])c1	-15%	-12%
O=C(Cn1c(-c2cccs2)cc2cc(Cl)ccc21)N1CCCCC1	-2%	-13%
O=S(=O)(CCN1CCOCC1)c1ccc(Cl)cc1	-22%	?
O=C(c1ncc[nH]1)c1ccco1	-5%	-13%
O=S(=O)(c1cccc2cccnc12)N1CCN(Cc2ccccc2)CC1	-5%	-7%
COc1ccc2c(c1)CC(NC(=O)Nc1ccc(Br)c(C)c1)CO2 (stereo not given)	-6%	-3%
O=C(Cc1ccc(Cl)cc1)N/N=C/c1c(Cl)cccc1Cl	-16%	-8%
Cc1ccc(CC(=O)N/N=C/c2ccc3c(c2)OCO3)cc1	2%	1%
Cc1nn(C)cc1CN(C)S(=O)(=O)c1cccc([N+](=O)[O-])c1	-15%	-14%
CC(=O)CSc1nc2c(c(=O)[nH]c(=O)n2C)n1Cc1ccccc1Cl	i	-9%
c1cnn2c(-c3ccc4c(c3)CCO4)cnc2c1	-30%	-16%
Cc1c(CCC(=O)N[C@@H](CC(C)C)C(=O)O)c(=O)oc2c(C)c3oc4c(c3cc12)CCCC4	-9%	-9%
Cc1ccc(-n2ncc3c(Nc4ccc5c(c4)OCCO5)ncnc32)cc1Cl	-20%	-28%
COc1cc(C(=O)O)ccc1O	i	-11%
COc1ccc(CNC(=O)CN2C(=O)CSc3ccc(S(=O)(=O)N4CCOCC4)cc32)cc1	-11%[7.34 µM]	-4%[7.34 µM]
CC(C)CNS(=O)(=O)c1ccc(CCC(=O)O)cc1	·	-11%
CSC(=NC#N)N1CCN(c2c(C)cccc2C)CC1	-13%	-9%
CC(=O)Nc1ccc(SC[C@H](C)CN2CC[C@H](C(C)(C)C)CCC2=O)cc1	-13%&-10%	-16%&-17%
CN1CCN(C(=O)c2ccccc2NC(=O)c2cccs2)CC1	1%	2%
C=CCOc1cccn2c(N(C=O)Cc3ccc(OC)cc3)c(CC)nc12	25%	-9%
COc1ccc(NC(=O)COc2ccc3c(c2)OCO3)cc1	-9%	-19%
COC1C(CO)OC(n2c3c(Cl)cccc3c3c4c(c5c6cccc(Cl)c6[nH]c5c32)C(=O)NC4=O)C(O)C1O (stereo not given)	?	?
CN(C)C(=O)CCC(=O)N1CCCC(N2CCN(c3cccc(C(F)(F)F)c3)CC2)C1 (stereo not given)	-25%	2%
COc1ccc(OC)c(NC(=O)Cn2c(=O)n(Cc3nc(C)no3)c(=O)c3ccccc32)c1	-3%	-5%
C[C@@H]1CCCCO[C@@H](CN(C)C(=O)Cc2ccccc2)[C@@H](C)CN([C@H](C)CO)C(=O)c2cc(N(C)C)ccc2O1	-13%	-15%
CC1CCOC2(O1)C(=O)N(CN1CCN(c3cccc(Cl)c3)CC1)c1ccccc12 (stereo not given)	-11%	-6%
Cc1cccc(NC(=O)C2CCN(S(=O)(=O)c3ccc4c(c3)OCCO4)CC2)n1	-2%	-10%
CC(C)N1C(=O)c2ccccc2NS1(=O)=O	-1%	0%
Cc1cccc(C)c1-n1nnnc1C1c2ccccc2C(=O)N1CCc1ccc(O)cc1 (stereo not given)	6%	-3%
O=C(Nc1ccc(C(=O)N2CCN(c3ccc(F)cc3)CC2)cc1)c1nsc2ccccc12	-4%	-15%
CC(=O)OC(C(=O)NC1CCCCC1)c1ccc(C)cc1 (stereo not given)	-3%	-3%
Cc1c(Cl)cccc1-c1ccc(C(=O)N2CCN(c3ccc([N+](=O)[O-])cc3)CC2)o1	·	3%
CC(CC(=O)Nc1cccc(Cl)c1)c1ccccc1 (stereo not given)	-16%	-10%
COc1ccc(C(c2nnnn2Cc2ccccc2)N2CCN(c3nc4ccccc4s3)CC2)cc1OC (stereo not given)	-14%	-26%
C=CCn1c(C)cc(C(=O)COC(=O)C2CC(=O)N(CCc3ccc(OC)c(OC)c3)C2)c1C (stereo not given)	-1%	2%
OCc1cc([C@@H](O)CNCCCCCCOCCCCc2ccccc2)ccc1O	14%	-22%
Cc1cc(C(=O)OCC(=O)NCCc2ccccc2)c(C)o1	-4%	-3%
CC(=O)c1c(O)cc(=O)n(-c2ccccc2)c1-c1cccc2ccccc12	·	-17%
O=C(N[C@H]1CCC(=O)N(CCSc2ccc(Br)cc2)CC1)OCc1ccccc1	-17%&-23%	-30%&-18%
COc1ccc(C)cc1S(=O)(=O)N(CC(=O)N1CCCC1)c1ccccc1	-15%	-5%
COc1ccc(S(=O)(=O)N2CCOCC2)cc1NC(=O)Cc1ccc(Cl)c(Cl)c1	-10%	-5%
CC1(C)c2[nH]c3ccccc3c2C[C@H]2C(=O)N(CCCCCO)CC(=O)N21	i	-16%
COc1ccc(NC(=O)c2sc3nc(C)c(C(=O)Nc4ccc(C)cc4C)c(-c4ccc(Cl)cc4)c3c2N)cc1	-6%	-9%
CCCCCCCC(=O)NN=C1CCN(Cc2ccccc2)CC1	i	-19%
CCCOc1ccc(/C(O)=C2\C(=O)C(=O)N(CCCOC)C23C(=O)N(C)c2ccccc23)cc1 (stereo not given)	·	-15%
COC(=O)C1=C(c2ccc(S(C)(=O)=O)cc2)C[C@@H]2CC[C@H]1N2C(=O)NCCCOC(C)C	i	-5%
Cc1ccc(NC(=O)CCC(=O)NNS(=O)(=O)c2ccccc2)cc1C	-13%	-12%
CC1CCCC(NC(=O)C2N(CCCN3CCCC3)C(=O)C3C(C(=O)Nc4cccc(Cl)c4)C4C=CC32O4)C1C (stereo not given)	-5%	-17%
Cc1ccc(-c2ccc(CCC(=O)O)n2NC(N)=S)cc1	-6%	-16%
Cc1cccc(C)c1NC(=O)NC1(C(=O)NCCCN2CCOCC2)CCCCC1	·	-11%
CN(CCO)Cc1csc2ccc(Br)cc12	·	-8%
CCCn1c(=O)c2ccccc2n2c(SCc3nnc(-c4ccccc4Br)o3)nnc12	-10%	0%
O=S(=O)(Nc1nc2ccccc2nc1Cl)c1ccccc1C(F)(F)F	-4%	-1%
CCOC(=O)c1ccc(Nc2nc(C)cc(C)c2C#N)cc1	-8%	-6%
CC(C)(C)N1CC23C=CC(C[C@@H]2C1=O)O3 (stereo not given in full)	i	0%
Cc1ccc(S(=O)(=O)N2CCOCC2)cc1NC(=O)COC(=O)c1ccc(Cl)nc1	i	-4%
CCOC(=O)C(NC(=O)N(C)C)(Nc1sc(C)c(CC)c1C#N)C(F)(F)F (stereo not given)	-20%	-5%
O=C(O)C1CC=CCC1C(=O)Nc1cccc(C(=O)N2CCCCC2)c1 (stereo not given)	-8%	-4%
CC1Cc2ccccc2N1Cc1cccc(S(=O)(=O)N(C)C)c1 (stereo not given)	?	-4%
CCOC(=O)c1ccc(NC(=O)CCC(=O)NCc2ccco2)cc1	i	3%
COC(=O)c1ccccc1NC(=O)Nc1ccc(Cl)cn1	-12%	-5%
NC(=O)CSc1ncc2c(n1)-c1ccccc1N(Cc1ccc(F)cc1)S2(=O)=O	7%	16%
Cc1c(Cl)c([N+](=O)[O-])nn1CC(=O)NCC(C)C	-5%	-7%
Cc1sc2nc(SCC(N)=O)n(-c3ccccc3)c(=O)c2c1C	-7%	-3%

Overlap with the part before: 6 compounds, followed by the next part.
SMILES	VACV mCherry inh	Vaccinia Venus
CC1Cc2ccccc2N1Cc1cccc(S(=O)(=O)N(C)C)c1 (stereo not given)	?	-4%
CCOC(=O)c1ccc(NC(=O)CCC(=O)NCc2ccco2)cc1	i	3%
COC(=O)c1ccccc1NC(=O)Nc1ccc(Cl)cn1	-12%	-5%
NC(=O)CSc1ncc2c(n1)-c1ccccc1N(Cc1ccc(F)cc1)S2(=O)=O	7%	16%
Cc1c(Cl)c([N+](=O)[O-])nn1CC(=O)NCC(C)C	-5%	-7%
Cc1sc2nc(SCC(N)=O)n(-c3ccccc3)c(=O)c2c1C	-7%	-3%
COc1ccc(-n2cnnc2SCC(=O)Nc2cccc(S(N)(=O)=O)c2)cc1	-1%	-12%
CCc1ccccc1NC(=O)c1cc(S(=O)(=O)N2CCCC2)c[nH]1	-2%	-15%
CC(C)CC1NC(=O)C(CC(C)C)N(CO)C1=O (stereo not given)	-13%	-10%
O=C(Nc1nc2c(s1)CCCC2)C1COc2ccccc2O1 (stereo not given)	i	-15%
O=C(Nc1ccc2oc(-c3cccc(F)c3)nc2c1)c1ccccc1F	-12%	-13%
Cc1cc(F)ccc1NC(=O)C1CCC(CNS(=O)(=O)c2ccc3c(c2)CCCC(=O)N3)CC1 (stereo not given)	-7%	-14%
Cc1ccc(C)c(CN2C(=O)c3ccccc3S(=O)c3ccc(C(=O)N4CCN(c5ccccc5F)CC4)cc32)c1 (stereo not given)	?	-13%
CCOC(=O)Cc1csc(N/C(=N/S(=O)(=O)c2cc(Br)ccc2OCC)c2ccccc2)n1	-13%	-5%
CCc1cc(C(=O)N(C)CC(=O)N(CC(C)C)c2c(N)n(CC(C)C)c(=O)[nH]c2=O)sc1C	i	-18%
COc1cc(Nc2nc3ccccc3n3nnnc23)cc(OC)c1OC	-5%	-14%
O=C(Nc1ccc(F)c(Cl)c1)C1CCN(c2ncccn2)CC1	4%	3%
CC1CCCN(C(=O)c2ccc(CNc3c(N4CCCCC4)c(=O)c3=O)cc2)C1 (stereo not given)	8%	-7%
CCN(CC)C(=O)C1CCCN(Cc2ccc3ccccc3c2)C1 (stereo not given)	-7%	-12%
O=C(O)CC(CC(=O)Nc1ccc(N2CCOCC2)cc1)c1ccccc1 (stereo not given)	i	-10%
Cc1ccc(S(=O)(=O)NCc2ccc(C(=O)N3CCN(Cc4ccccc4)CC3)cc2)cc1	-27%	?
O=C(OCCN1CCOCC1)c1ccccc1Cl	-12%	-3%
COc1ccc(-c2cc(C(=O)NCCc3ccc(OC)c(OC)c3)c3c(-c4ccc(F)cc4)[nH]nc3n2)cc1	-7%	-8%
Cc1ccccc1C(=O)OCCN1CCOCC1	i	-6%
C/C(N)=C(/C#N)C(=O)COC(=O)c1ccc(O)cc1	i	1%
COc1c(C)cc(C(=O)C2CCCN(C(=O)c3cc(C)n(C)n3)C2)cc1C (stereo not given)	-9%[7.34 µM]	-6%[7.34 µM]
O=C(NC1=NCCS1)c1ccc(Cl)c(S(=O)(=O)N2CCOCC2)c1	17%	3%
COc1ccc(Cc2nnc(NN)[nH]c2=O)cc1OC	-11%	-9%
CCOC(=O)N1CCN(C(=O)C2CCCN(S(=O)(=O)c3ccc(F)cc3)C2)CC1 (stereo not given)	-19%	-5%
O=C(NNC(=O)c1ccccc1Br)c1cccs1	i	-3%
O=S(=O)(Nc1ccc(S(=O)(=O)N2CCCCC2)cc1)c1ccc(Br)s1	-21%	-18%

Assay outcomes deposited in PubChem by National Center for Advancing Translational Sciences (NCATS).

Not a hit list; about 0.87% have a hit in one of these screens.
